Compound activity deposited in PubChem by National Center for Advancing Translational Sciences (NCATS).
TRPML1 inh – blocks the human TRPML1 channel; TRPML1-inducible cells, Ca2+ dye fluorescence, FDSS; hits give low values; inhibition of EC80 agonist-evoked calcium signal; activity change, negative = inhibition, % (concentration not given with the values); Q9GZU1; AID 624415; 0.02% of 390,000 active; in the data active means activity change below about -50%; inconclusive means about -30% to -50%; inactive means above about -30%;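 note: stimulus is agonist 54-4 at its EC80 concentration; % is set by controls: 0 for no effect and ±100 for the full control effect; compound concentration not given in the record; the text of the record puts the active cut at -80%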
Target sequence (Q9GZU1 whole entry, looked up): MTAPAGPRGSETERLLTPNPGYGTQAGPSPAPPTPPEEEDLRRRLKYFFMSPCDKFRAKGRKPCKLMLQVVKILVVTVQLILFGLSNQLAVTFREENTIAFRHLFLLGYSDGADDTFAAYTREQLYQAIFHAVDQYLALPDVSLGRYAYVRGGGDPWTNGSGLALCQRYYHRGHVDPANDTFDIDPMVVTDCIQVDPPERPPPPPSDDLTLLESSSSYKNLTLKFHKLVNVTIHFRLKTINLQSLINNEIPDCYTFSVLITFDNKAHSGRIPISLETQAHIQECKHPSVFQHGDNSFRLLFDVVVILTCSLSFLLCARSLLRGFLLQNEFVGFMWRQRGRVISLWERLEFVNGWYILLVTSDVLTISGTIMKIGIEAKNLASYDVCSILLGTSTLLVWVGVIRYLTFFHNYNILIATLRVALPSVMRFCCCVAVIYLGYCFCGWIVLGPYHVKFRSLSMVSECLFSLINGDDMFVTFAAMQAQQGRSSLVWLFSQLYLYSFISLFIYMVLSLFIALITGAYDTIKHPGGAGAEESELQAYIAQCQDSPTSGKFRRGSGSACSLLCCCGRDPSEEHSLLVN
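TRPML1-DL cells, Tet-induced overnight (~16 h, 37 °C) at 1,500 cells/well, were loaded with Ca8 no-wash dye plus quencher for 45-90 min at room temperature. Compounds were pinned during FDSS kinetic reading; agonist 54-4 at EC80 (4 uM final) then added.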
TRPV1 PAM – enhances activation of the human vanilloid receptor TRPV1; Q8NER1; TRPV1-expressing cells, Fluo-8 calcium influx, capsaicin EC20 potentiation; host cell line not named in the record; control for the full effect not named in the record; potentiation, % at 8.33 µM; 0.02% of 320,000 active; AID 540277; active means potentiation above 80%; inconclusive means 30% to 80%; inactive means below 30%; note: 0% is about no effect
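Fluo-8 calcium influx in TRPV1-expressing cells, kinetic read (ex 480/em 520 nm). Compound added and read 3 min for agonist activity, followed by capsaicin at EC20 final and 2 min further read for enhancement.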
Menin MLL FP FL – inhibitors of human menin-MLL interaction, wild-type MLL peptide; Fluorescence polarization, fluorescein-MLL peptide displacement from menin; FP activity change, % at 61.4 µM; 290,000 tested, under 10 active; inconclusive = falling polarisation curve, or a change in total fluorescence; inactive = total fluorescence flat and polarisation flat or rising; no compound was filed as active; the % refers to the polarisation; negative = inhibition;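 note: % of control where 0% means no effect; inhibitors lower the polarisation; unlabelled MLL peptide was the positive control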
gsp antag – antagonists of gsp mutant (McCune-Albright syndrome); Potency, µM (highest dose often 76.9 µM), for inactives: at the highest dose activity change, negative = inhibition, hits mostly inhibitors; 0.4% of 340,000 active; gsp-mutant cells, cAMP HTRF, 30 min; control for the full effect not named in the record; active = falling curve of any shape with a large fitted effect; inconclusive = falling curve, mostly with a smaller effect; inactive = flat or rising curve; cell line not stated here;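 note: intracellular cAMP measured with PDE inhibitor Ro 20-1724 present during compound exposure; potency is the fitted concentration of half-maximal effect; % is set by controls: 0 for no effect and ±100 for the full control effect; nearly all actives have a fitted effect of over 65% in size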
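Cells, 2000/well, grown 16–24 h in DMEM 10% FBS with 0.5 mg/ml G418, then compounds plus […] (300 uM addition stock), 30 min at 37C. cAMP read by HTRF (cAMP-d2 and anti-cAMP antibody-K in lysis buffer) after 30 min RT.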
ClpP mod – qHTS Assay for Activators of ClpP; ATP-dependent Clp protease proteolytic subunit (Bacillus subtilis (strain 168)), P80244; purified B. subtilis ClpP, FRET peptide cleavage, 20 min; Potency, µM (highest dose often 57.5 µM), for inactives: top-dose activity change, negative = active; 1.9% of 340,000 active; AID 651965, 2013; active = well fitted falling curve with a large enough effect; inconclusive = small, poorly fitted or top-dose-only effect; inactive = no such curve, though single readings can be large or run the other way; note: potency is the fitted concentration of half-maximal effect; the source files actives as falling curves though it sought activators and does not explain the sign; nearly all actives have a fitted effect of over 65% in size; many hits overshoot -100%
Target sequence (P80244 whole entry, looked up): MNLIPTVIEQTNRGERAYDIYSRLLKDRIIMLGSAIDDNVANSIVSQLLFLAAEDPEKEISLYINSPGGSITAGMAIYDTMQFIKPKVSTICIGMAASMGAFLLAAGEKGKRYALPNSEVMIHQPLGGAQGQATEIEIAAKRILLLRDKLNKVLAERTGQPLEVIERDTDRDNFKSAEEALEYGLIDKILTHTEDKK
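Buffer: 100 mM Tris/HCl pH8, 100 mM KCl, 0.05% low protease BSA, 2.5% glycerol, 0.01% Tween-20. ClpP 10 microg/mL final; 20 min RT; delta FRET normalized to ADEP and DMSO controls.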
Sfp PPTase inh – Sfp phosphopantetheinyl transferase inhibition; Q9F4F7; Biochemical Sfp PPTase activity, qHTS; Potency, µM, for inactives: max response, negative = inhibition, hits mostly inhibitors; 3.5% of 310,000 active; AID 1490; active = well fitted inhibition curve with a large enough effect; inconclusive = small, poorly fitted or top-dose-only effect, or another doubt; inactive = no such curve, though single readings can be large or run the other way;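 note: the enzyme is Sfp with the accession as filed and its product quenches rhodamine fluorescence; potency is the fitted concentration of half-maximal effect; 0% = enzyme reaction without inhibitor and -100% = no enzyme wells; top concentration of the series not given in the record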
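With Hepes-Na pH 7.6 buffer containing 10 mM MgCl2, Sfp (15 nM) modified BHQ-2-YbbR (12.5 uM) using rhodamine-CoA (5 uM). Two reads 30 minutes apart at 525/598 nm yielded each well's rate.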
gsp ag – activates gsp, the McCune-Albright syndrome mutation; AID 624287; 0.13% of 340,000 active; gsp mutant cells, cAMP HTRF, 30 min; control for the full effect not named in the record; Potency, µM (series often up to 76.9 µM), inactives show at the top dose activation (cAMP increase), actives largely listed as activators; active = well fitted activation curve with a large enough effect; inconclusive = small, poorly fitted or top-dose-only effect, or another doubt; inactive = no such curve, though single readings can be large or run the other way; cell line not stated here;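 note: phosphodiesterase inhibitor Ro 20-1724 added with compounds to block cAMP breakdown; potency is the fitted concentration of half-maximal effect; nearly all actives have a fitted effect of over 60% in size; about a fifth of the inactives were tested at one dose only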
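Cells stably selected in G418 were plated at 2000/well, grown 16-24 hr, then given compounds in DMSO with the PDE inhibitor […] (300 uM solution added) for 30 min at 37C; cAMP was read by HTRF.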
An asterisk follows results filed as active; u = inconclusive; x = no result given; [ ] = another dose, or the depositor's remark.

Letters: A = TRPML1 inh; B = TRPV1 PAM; C = Menin MLL FP FL; D = gsp antag; E = ClpP mod; F = Sfp PPTase inh; G = gsp ag
1	C/C(=N\NC(=O)c1c(Cl)cnn1C)c1cccnc1
  A: 7 | B: -3 | C: -0.5 | D: -9% | E: -0.2% | F: 25% | G: u
2	Cc1cc(C)c(NC(=O)COC(=O)C2CCCCC2)c(C)c1
  A: -15 | B: 13 | C: x | D: 10% | E: -4.2% | F: x | G: -3%
3	CC(C)[C@H](NS(=O)(=O)c1ccc2c(c1)OCCO2)C(=O)OCC(=O)Nc1cc(Cl)ccc1Cl
  A: 21 | B: -2 | C: 3.8 | D: u | E: -1.4% | F: 9% | G: 22%
4	CN(C)/C=C1/N=C(c2ccccc2)OC1=O
  A: 3 | B: 22 | C: -2.1 | D: 5% | E: -3.3% | F: 13% | G: 28%
5	CCSC1=C(C#N)C(c2ccccc2OC)CC(=O)N1 (centres undefined)
  A: 5 | B: -7 | C: 0.0 | D: -8% | E: -4.0% | F: 2% | G: -22%
6	CN1CCN(C2=C(Cl)C(=O)N(c3cccc(Cl)c3)C2=O)CC1
  A: 26 | B: -3 | C: -0.4 | D: u | E: -3.2% | F: -23% | G: 26%
7	COc1ccc(CCN2CC(C(=O)N(C)CCc3cn[nH]c3)CCC2=O)cc1 (centres undefined)
  A: -5 | B: -5 | C: -6.7 | D: 11% | E: 0.2% | F: 15% | G: 12%
8	CCOC(=O)c1ccc(CNCc2ccc(Br)cc2)cc1
  A: -8 | B: 1 | C: 6.5 | D: 3% | E: -1.0% | F: 3% | G: 20%
9	CCN1C(=O)[C@H]2[C@@H](c3ccc(C(F)(F)F)cc3)N[C@]3(CCCN(Cc4ccc(F)cc4)C3=O)[C@H]2C1=O
  A: 13 | B: x | C: x | D: x | E: -1.4% | F: x | G: -67%[inhibitor]
10	COc1ccc(NC(=O)COC(=O)C2CCN(S(=O)(=O)c3cccs3)CC2)cc1OC
  A: 35 | B: x | C: x | D: -4% | E: x | F: x | G: 8%
11	CC(C)CCNC(=O)C1CCCN1C(=O)NC1CCCCC1 (centres undefined)
  A: -4 | B: 9 | C: 2.8 | D: 8% | E: -4.7% | F: 6% | G: 12%
12	N#Cc1nc(COc2ccc(Br)cc2)oc1NCCCn1ccnc1
  A: -3 | B: -11 | C: 0.3 | D: 6% | E: 1.5% | F: 13% | G: -9%[15.4 µM]
13	CCC1Oc2ccccc2N(CC(=O)NC2CCCC2)C1=O (centres undefined)
  A: -15 | B: 15 | C: 0.4 | D: 6% | E: x | F: 4% | G: -47%[inhibitor]
14	Cn1c(N)c(C(=O)c2ccc(F)cc2F)c(=O)n(C)c1=O
  A: -16 | B: 6 | C: 2.8 | D: 8% | E: -1.0% | F: 10% | G: -24%
15	OC(Cn1cncn1)(c1ccccc1)c1ccccc1
  A: 15 | B: -2 | C: 2.1 | D: 9% | E: -0.4% | F: 17% | G: 11%

The last 4 entries of the part above come first, to join the parts:
Letters: A = TRPML1 inh; B = TRPV1 PAM; C = Menin MLL FP FL; D = gsp antag; E = ClpP mod; F = Sfp PPTase inh; G = gsp ag
12	N#Cc1nc(COc2ccc(Br)cc2)oc1NCCCn1ccnc1
  A: -3 | B: -11 | C: 0.3 | D: 6% | E: 1.5% | F: 13% | G: -9%[15.4 µM]
13	CCC1Oc2ccccc2N(CC(=O)NC2CCCC2)C1=O (centres undefined)
  A: -15 | B: 15 | C: 0.4 | D: 6% | E: x | F: 4% | G: -47%[inhibitor]
14	Cn1c(N)c(C(=O)c2ccc(F)cc2F)c(=O)n(C)c1=O
  A: -16 | B: 6 | C: 2.8 | D: 8% | E: -1.0% | F: 10% | G: -24%
15	OC(Cn1cncn1)(c1ccccc1)c1ccccc1
  A: 15 | B: -2 | C: 2.1 | D: 9% | E: -0.4% | F: 17% | G: 11%
16	Cc1nc(NC(C)c2ccccc2)c2oc3ccccc3c2n1 (centres undefined)
  A: 2 | B: -10 | C: 3.2 | D: -34% | E: -30% | F: -32% | G: 9%
17	NS(=O)(=O)c1cccc(NC(=O)CSc2nc3ccc(Cl)cc3[nH]2)c1
  A: -1 | B: -37 | C: 5.5 | D: 8% | E: 14µM* | F: 12% | G: -5%[15.4 µM]
18	CCCc1cc(C(=O)Nc2cc(C)nn2-c2ccccc2)no1
  A: -2 | B: x | C: 3.1 | D: -2% | E: 1.7% | F: 18% | G: u
19	O=C(CN1C(=O)S/C(=C\c2ccc(Cl)cc2)C1=O)NCCCn1ccnc1
  A: 1 | B: -3 | C: x | D: -2% | E: -2.8% | F: 5% | G: -20%
20	O=C1C2C3CC(C(Br)C3Br)C2C(=O)N1c1ccccn1 (centres undefined)
  A: 18 | B: -2 | C: 0.6 | D: 8% | E: -1.6% | F: 14% | G: 6%
21	COc1ccc(CCN=C(N)NS(=O)(=O)c2cccs2)cc1
  A: -8 | B: -3 | C: 5.1 | D: 6% | E: 2.0% | F: 10% | G: -7%
22	COc1ccc(Nc2nccc3c2nnn3C)cc1
  A: -13 | B: 1 | C: -0.4 | D: 2% | E: 0.9% | F: 12% | G: 0%
23	N#Cc1cccnc1Nc1cccc(Cl)c1
  A: 4 | B: 4 | C: 1.3 | D: 13% | E: 1.5% | F: -2% | G: 1%[15.4 µM]
24	CN(C)S(=O)(=O)c1ccc(N2CCCC2)c(C(=O)Nc2ccc(N3CCOCC3)cc2)c1
  A: 5 | B: 27 | C: 3.2 | D: -16% | E: -4.3% | F: 11% | G: 0%
25	FC(F)(F)c1cc(-c2ccc(Cl)cc2)nc(NCc2cccnc2)n1
  A: 24 | B: -1 | C: -0.9 | D: -6% | E: u | F: 79µM* | G: -1%
26	CCOc1ccccc1NC(=O)C(c1ccccc1)N1CCN(C(=O)c2ccco2)CC1 (centres undefined)
  A: 11 | B: -7 | C: x | D: -22% | E: 2.2% | F: x | G: 15%
27	COc1cc(NS(=O)(=O)c2ccc(NC(=O)COc3ccccc3C)cc2)nc(OC)n1
  A: -16 | B: x | C: -1.7 | D: u | E: -3.9% | F: 0% | G: -25%
28	Cc1ccc(OCC(=O)NCc2cccnc2)cc1
  A: -9 | B: -17 | C: 0.3 | D: -30% | E: x | F: 7% | G: 21%[15.4 µM]
29	O=C(Nc1ccc2oc(-c3cccnc3)nc2c1)c1ccco1
  A: 8 | B: -7 | C: 3.9 | D: -9% | E: u | F: 9% | G: 3%
30	O=C(NCCCn1ccnc1)C(=O)NCC1OCCN1S(=O)(=O)c1ccc(Cl)cc1 (centres undefined)
  A: -13 | B: 3 | C: 3.1 | D: 8% | E: 1.3% | F: 10% | G: u
31	C[C@@H]1CC=C[C@H]2[C@H]1C(=O)N(Cc1ccccc1)[C@H]2c1ccc2ccccc2c1Br
  A: 76 | B: 0 | C: -2.0 | D: -3% | E: -0.4% | F: -13% | G: x
32	COCc1cc(C)nc(NC2CC(C)(C)NC(C)(C)C2)c1C#N
  A: -26 | B: 8 | C: -15 | D: 2% | E: x | F: 3% | G: 5%
33	COc1cccc(C2C([N+](=O)[O-])=C(N)Oc3cc(C)oc(=O)c32)c1 (centres undefined)
  A: 2 | B: -4 | C: 3.0 | D: 6% | E: 0.5% | F: 27% | G: 22%[15.4 µM]
34	c1ccc(CN2CCC(CNc3ncnc4ccccc34)C2)cc1 (centres undefined)
  A: 0 | B: x | C: x | D: 3% | E: x | F: x | G: 21%
35	CCCCn1c(SCC(=O)N2CCC(C(=O)OCC)CC2)nc2cc(S(N)(=O)=O)ccc21
  A: 0 | B: 3 | C: 1.6 | D: -19% | E: 2.4% | F: 5% | G: -18%
36	Cn1ccnc1SC(=O)N1c2ccccc2Sc2ccccc21
  A: -4 | B: 11 | C: 0.9 | D: -8% | E: 2.2% | F: 9% | G: -2%
37	CCCC1(C(=O)OCC)NC(c2ccc(OC)cc2OC)C2C(=O)N(c3ccc4c(c3)OCCO4)C(=O)C21 (centres undefined)
  A: -3 | B: -4 | C: 4.7 | D: -5% | E: -1.4% | F: 18% | G: -7%
38	CCOc1ccc(NC(=O)COc2ccc(C(=O)NCCc3ccccc3)cc2)cc1
  A: 10 | B: 3 | C: 3.2 | D: 10% | E: -7.1% | F: 24% | G: 15%[15.4 µM]
39	O=C(O)c1cccc(N/N=C/c2sc(N3CCOCC3)nc2-c2ccccc2)c1
  A: -1 | B: 2 | C: 3.4 | D: -23% | E: u | F: -2% | G: -7%
40	CCOC(=O)c1ccc(Cn2cnc3ccccc3c2=O)cc1
  A: -13 | B: -2 | C: -0.6 | D: 7% | E: -2.4% | F: 11% | G: -16%
41	Cc1ccc(Nc2nc(C)cs2)cc1
  A: -10 | B: 5 | C: 0.9 | D: -3% | E: x | F: 22µM* | G: 16%
42	CC1(C)CC(=O)C2=C(C1)Nc1[nH]n(-c3ccccc3)c(=O)c1C2c1ccc2c(c1)OCO2 (centres undefined)
  A: 0 | B: 5 | C: 4.2 | D: -12% | E: -1.5% | F: 10% | G: u
43	O=C(CN1C(=O)/C(=C\c2ccc(C(F)(F)F)cc2)Sc2ccccc21)NCc1ccco1
  A: -3 | B: 10 | C: 7.7 | D: -13% | E: 4.8% | F: u | G: 16%
44	CO/N=C/NC(=O)c1c(OC)ccnc1Oc1ccc(F)cc1
  A: -3 | B: 11 | C: -0.2 | D: 7% | E: -3.2% | F: 6% | G: 2%
45	CC(C)Oc1cccc(C(=O)C2CCCN(Cc3cnc(N4CCOCC4)s3)C2)c1 (centres undefined)
  A: -14 | B: -9 | C: -0.5 | D: 6% | E: x | F: 16% | G: -3%
46	CSc1ccc(CN2C(=O)NC3(CCCCCCC3)C2=O)cc1
  A: -1 | B: 10 | C: 3.8 | D: 5% | E: 0.8% | F: 2% | G: 7%
47	COc1ccc(Br)cc1/C=N/NC(=O)CNC(=O)C1COc2ccccc2O1 (centres undefined)
  A: -7 | B: -6 | C: u | D: u | E: -2.3% | F: 4% | G: 8%
48	Cc1cccc(C(=O)NCCNC(=O)c2ccco2)c1
  A: 3 | B: 0 | C: -7.0 | D: 3% | E: x | F: 21% | G: -46%[inhibitor]
